Screens deposited in PubChem by National Center for Advancing Translational Sciences (NCATS).
GLA inh pH 4.5: inhibitors of human alpha-galactosidase A at pH 4.5 | 230,000 tested, under 10 active | purified enzyme, 4-MU-alpha-Gal fluorescence, pH 4.5 | activity change, negative = inhibition, % at 105 µM | AID 1467 | P06280; inconclusive = small, poorly fitted or top-dose-only inhibition, or a rising curve; inactive = flat fitted curve, though single readings scatter; no compound was filed as active;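 further: 0% = full activity with enzyme and -100% = basal without enzyme; dose as in the result columns while the protocol names 77 µM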
Rango release inh: prevents RanGTP from dissociating the Rango-importin beta complex; AID 540253; Biochemical FRET Rango-importin beta, RanGTP-induced dissociation; Potency, µM (highest dose often 46.1 µM), inactives show at the highest dose activity change, negative = inhibition; O95149+P62826; 0.071% of 340,000 active; active means falling FRET ratio curve, often poorly fitted, with flat reads before Ran was added; inconclusive means other falling curves, or compound fluorescence or quenching; inactive means flat or rising ratio curve;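 further: potency means the concentration at half of the fitted maximal effect; % of control where 0% means no effect; nearly all actives have a fitted effect of over 45% in size; -100% = wells without RanGTP and RCC1; the record marks most hits as doubtful in a second field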
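Two FRET readings bracket the reaction: one 5 min after compound meets Rango–importin beta, another 45 min after RanGTP-RCC1 (0.6 uM Ran, 0.2 uM RCC1, 2 mM GTP) is added. Only the second defines inhibition.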
miR-21 FLuc: miR-21 reporter, rising signal; Potency, µM (doses to about 38.3 µM), inactives show at the top dose reporter change, positive = more light; HeLa miR-21 FLuc reporter, luciferase, 48 h; 340,000 tested, under 10 active; active = well fitted rising curve with a large enough effect; inconclusive = small, poorly fitted or top-dose-only effect; inactive = no such curve, though single readings can be large or run the other way;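 further: % of control where 0% means no effect; miR-21 action dims this reporter so a rising signal means less miR-21 action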
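HeLa miR-21-FLuc reporter line, endogenous miR-21; 2000 cells/well in DMEM/10% FBS; compound titration up to ~40uM final, 48 h, 37 degree Celsius; luciferase detection reagent, 15 min lysis, CCD luminescence.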
Rango-impB inh: inhibitors of Rango-importin beta complex formation | Q14974 | Rango CFP/YFP FRET sensor + importin beta, 45 min | Potency, µM (series often up to 92.2 µM), for inactives: at the top dose inhibition of complex formation | 0.031% of 340,000 active | AID 540263; active = rising FRET ratio curve, often small or poorly fitted; inconclusive = mostly compound fluorescence or quenching in the first reads; inactive = flat curves in all reads;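 further: potency means the concentration at half of the fitted maximal effect; 0% = DMSO wells and 100% = buffer wells lacking importin beta; nearly all actives have a fitted effect of over 15% in size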
Target sequence (Q14974 whole entry, looked up): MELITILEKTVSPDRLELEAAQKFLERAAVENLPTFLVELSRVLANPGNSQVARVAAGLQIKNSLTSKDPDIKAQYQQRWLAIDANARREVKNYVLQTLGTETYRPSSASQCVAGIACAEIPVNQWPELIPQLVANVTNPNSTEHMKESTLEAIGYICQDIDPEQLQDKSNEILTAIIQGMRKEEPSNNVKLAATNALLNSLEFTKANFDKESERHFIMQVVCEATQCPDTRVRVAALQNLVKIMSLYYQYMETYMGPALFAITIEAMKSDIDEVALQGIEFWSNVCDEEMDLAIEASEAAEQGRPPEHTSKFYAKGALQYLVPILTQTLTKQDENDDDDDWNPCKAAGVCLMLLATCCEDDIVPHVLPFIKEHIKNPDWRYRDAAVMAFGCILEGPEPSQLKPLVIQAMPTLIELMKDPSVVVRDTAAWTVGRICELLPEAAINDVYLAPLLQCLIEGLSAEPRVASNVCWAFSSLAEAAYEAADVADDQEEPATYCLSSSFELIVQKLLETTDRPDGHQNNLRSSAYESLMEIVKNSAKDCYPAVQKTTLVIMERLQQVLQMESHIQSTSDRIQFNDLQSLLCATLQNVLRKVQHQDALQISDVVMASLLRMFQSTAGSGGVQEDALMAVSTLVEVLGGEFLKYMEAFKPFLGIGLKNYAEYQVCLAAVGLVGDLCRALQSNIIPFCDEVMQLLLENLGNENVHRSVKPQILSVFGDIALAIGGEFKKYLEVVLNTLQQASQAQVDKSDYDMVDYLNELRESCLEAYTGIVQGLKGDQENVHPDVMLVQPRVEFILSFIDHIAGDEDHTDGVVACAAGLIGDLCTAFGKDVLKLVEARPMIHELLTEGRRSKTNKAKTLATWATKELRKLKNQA
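Inhibition scored from the CFP 486 nm/YFP 530 nm FRET ratio 45 min after adding 0.125 microM importin beta to 50 nM Rango biosensor preincubated 5 min with compound (room temperature, PBS with DTT, Tween-20, BSA). No-importin wells as positive control.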
Starred values were filed as active, the others as inactive; u = inconclusive; x = no result given; & = joins results of further samples; [ ] = dose if it differs, or a comment. This is a subset; rates above refer to the full screens.

GLA inh pH 4.5,Rango release inh,miR-21 FLuc,Rango-impB inh,molecule
-5.1,4.7%,-2.0%,0.1%,O=C(/C=C/c1cccc([N+](=O)[O-])c1)NCc1ccc2c(c1)OCO2
-3.2,10.4%,-1.0%,0.0%,NC(=S)Nc1cc(Cl)ccc1Cl
x,-8.3%,x,3.4%,COc1ccc(S(=O)(=O)N2CCCCCC2)cc1C(=O)N(C)Cc1ccc(F)cc1
x,u,6.7%,3.3%,O=C(C1CC1)N1N=C(c2cccc(Br)c2)CC1(O)C(F)(F)F (stereo not given)
6.4,-1.7%,-7.6%,2.3%,CC(C)Cn1c(O)c2ccc(C(=O)N=NC(=O)c3cccnc3)cc2c1O
3.1,3.9%,1.8%,0.1%,O=C(CSc1ccc2c(c1)OCCO2)NC(=O)NC1CCCC1
x,-3.1%,x,4.7%,COc1ccc(S(N)(=O)=O)cc1C(=O)OCCCC(=O)c1ccccc1
-14.3,-11.6%,-0.8%,-0.8%,COc1ccc(S(=O)(=O)N2CCN(c3ccc4nnc(-c5ccccc5)n4n3)CC2)cc1
4.3,17.7%,-24.0%,-1.2%,CC(NC(=O)c1ccco1)C(=O)N1CCc2ccccc2C1 (stereo not given)
-8.2,21.7%,-10.2%,2.6%,O=C(NC(=S)Nc1ccc(NC(=O)c2cccs2)cc1)c1cc2ccccc2o1

As entered above.
`NC(=S)Nc1cc(Cl)ccc1Cl` @ GLA inh pH 4.5: -3.2
`CC(NC(=O)c1ccco1)C(=O)N1CCc2ccccc2C1` (stereo not given) @ miR-21 FLuc: -24.0%

Continuation.
GLA inh pH 4.5,Rango release inh,miR-21 FLuc,Rango-impB inh,molecule
x,-7.8%,-5.4%,-0.9%,COc1ccc(OC)c(/C=C2\SC(=S)N(NS(=O)(=O)c3ccccc3)C2=O)c1
-6.9,7.1%,5.1%,4.9%,CN(c1ccc(C(=O)Nc2ccc(Cl)cn2)cc1)S(=O)(=O)c1ccccc1
3.6,3.3%,u,1.4%,CC(NC(=S)Nc1cccc(C(F)(F)F)c1)C(C)(C)C (stereo not given)
x,17.0%,x,1.1%,O=c1onc(-c2ccccc2Cl)n1-c1ccccc1Cl
2.5,-9.1%,-14.2%,-3.2%,COc1ccc2c(c1)cc1n2CCN=C1N
-0.3,-9.0%,12.0%,0.7%,CCn1c(SCC(=O)Nc2ccc3c(c2)oc2ccccc23)nnc1-c1ccc(N)cc1
x,-2.0%,x,-1.1%,CC(C)c1ccc(CN2CCN(S(=O)(=O)c3ccc(Cl)s3)CC2)cc1
x,26.9%,-27.5%,3.4%,CC(C)c1ccc(NC(=O)Cc2c(C(=O)O)n(C)c3ccccc23)cc1
x,-11.6%,x,-1.9%,COC(=O)CCNC(=O)c1ccc2nc(Cc3ccc(OC)cc3)oc2c1
1.1,3.6%,-4.4%,0.0%,O=C(N/N=C/c1ccc[nH]1)c1cccnc1

5 compounds out of the list above, sorted by the value under miR-21 FLuc, low to high:
smiles	miR-21 FLuc
CC(C)c1ccc(NC(=O)Cc2c(C(=O)O)n(C)c3ccccc23)cc1	-27.5%
COc1ccc(OC)c(/C=C2\SC(=S)N(NS(=O)(=O)c3ccccc3)C2=O)c1	-5.4%
O=C(N/N=C/c1ccc[nH]1)c1cccnc1	-4.4%
CN(c1ccc(C(=O)Nc2ccc(Cl)cn2)cc1)S(=O)(=O)c1ccccc1	5.1%
CCn1c(SCC(=O)Nc2ccc3c(c2)oc2ccccc23)nnc1-c1ccc(N)cc1	12.0%

(next part)
GLA inh pH 4.5,Rango release inh,miR-21 FLuc,Rango-impB inh,molecule
-0.8&-2.7,0.7%,-0.8%,-1.3%,C[C@@H](C(=O)NCc1ccccn1)[C@@H]1C[C@@]1(C)[C@@H](NC(=O)OCc1ccccc1)c1ccccc1
x,0.9%,x,-3.1%,Cc1nc2ccc(NS(=O)(=O)c3cccc([N+](=O)[O-])c3)cc2s1
-3.0,-13.3%,-3.0%,-0.2%,O=S(=O)(c1ccccc1)c1nc(-c2ccccc2)oc1N1CCCCC1
-0.2,-0.6%,18.5%,4.8%,O=C(COc1ccccc1-c1ccccc1)N/N=C/c1cccc2ccccc12
x,-5.7%,-3.0%,2.7%,CCOc1ccc2cc(S(=O)(=O)N3CCCCC3)ccc2c1
0.5,-8.0%,-1.2%,-0.3%,C1CCN(c2nc3nonc3nc2NCC2CCOCC2)CC1
x,28.3%,x,-1.2%,COc1ccccc1C(=O)OCC(=O)NC(=O)NC1CCCCC1
x,-5.1%,-11.4%,-2.7%,CCOc1ccc(C(=O)Nc2nnc(S(=O)(=O)N(C)Cc3ccco3)s2)cc1
4.9,7.7%,-15.2%,3.0%,Clc1ccc2nc(CSc3ccccc3)cn2c1
-2.8,7.8%,-51.2%,-1.5%,Cc1nc2ccc(NC(=O)COc3ccccc3)cc2s1

2 neighbouring entries out of the list so far:
GLA inh pH 4.5,Rango release inh,miR-21 FLuc,Rango-impB inh,molecule
x,-5.7%,-3.0%,2.7%,CCOc1ccc2cc(S(=O)(=O)N3CCCCC3)ccc2c1
0.5,-8.0%,-1.2%,-0.3%,C1CCN(c2nc3nonc3nc2NCC2CCOCC2)CC1

Additional compounds.
GLA inh pH 4.5,Rango release inh,miR-21 FLuc,Rango-impB inh,molecule
6.1,-3.6%,-9.9%,2.2%,CCOC(=O)c1cnc2c(C)c(C)ccc2c1Nc1ccc(S(=O)(=O)Nc2ncccn2)cc1
2.3,3.9%,-2.1%,2.8%,O=C(Nc1cc(S(=O)(=O)Nc2ccccc2Cl)ccc1O)c1cc2c(s1)CCCC2
x,15.3%,-0.4%,-0.3%,COc1ccccc1C(=O)N(Cc1ccc(Cl)cc1)C1CCS(=O)(=O)C1 (stereo not given)
x,3.6%,1.6%,-2.2%,CC(=O)O[C@H]1c2ccccc2-c2ccccc2[C@@H]1OC(C)=O
x,2.9%,6.0%&-1.9%,0.3%,COc1cc(NC(=O)CCNC(=O)Cn2ccc3ccccc3c2=O)cc(OC)c1OC
x,10.9%,-0.9%,-0.9%,CC(=O)c1cccc(NS(=O)(=O)N2CCOCC2)c1
2.0,u,-1.4%,u,O=C(NCCc1c[nH]c2ccccc12)/C(=C\c1cccnc1)NC(=O)c1ccco1
-3.1,0.3%,14.0%,-1.2%,O=C(CN(c1cccc(Cl)c1)S(=O)(=O)c1ccc(Cl)cc1)N1CCc2ccccc2C1
x,-1.4%,-6.5%,2.2%,COc1ccc(-c2cc(C(=O)Nc3ccc(C)c(C)c3)no2)cc1
-3.5,0.0%,-11.5%,0.4%,O=C(O)c1cccc(NC(=S)NC(=O)c2ccc(-c3ccc(Cl)cc3)o2)c1

Structures listed so far with an NH in an aromatic ring (2):
GLA inh pH 4.5,Rango release inh,miR-21 FLuc,Rango-impB inh,molecule
1.1,3.6%,-4.4%,0.0%,O=C(N/N=C/c1ccc[nH]1)c1cccnc1
2.0,u,-1.4%,u,O=C(NCCc1c[nH]c2ccccc12)/C(=C\c1cccnc1)NC(=O)c1ccco1

Next structures follow:
GLA inh pH 4.5,Rango release inh,miR-21 FLuc,Rango-impB inh,molecule
8.1,-15.4%,-1.8%,0.7%,O=C(Nc1cccnc1)c1coc(=O)c2ccccc12
x,12.9%,x,-0.6%,COc1ccc(C(CNC(=O)COc2cc(C)ccc2Cl)N2CCCCC2)cc1 (stereo not given)
x,-4.5%,-3.4%,-0.1%,Cc1noc(C)c1S(=O)(=O)N1CCCC(C(=O)NCc2ccccc2Cl)C1 (stereo not given)
x,u,5.3%,-2.2%,Cc1ccc(-n2nc3c(N4CCC(C(=O)NCc5ccc(C)o5)CC4)nnc(C)c3c2C)cc1
-13.5,2.6%,-10.1%,3.0%,CCOCCCNC(=O)C(NC(=O)c1ccc(NC(C)=O)cc1)c1ccccc1 (stereo not given)
0.8,-4.0%,6.3%,0.3%,Clc1cccc(COn2c(-c3ccc(Cl)cc3Cl)nc3ncccc32)c1
x,-3.5%,9.1%,-0.3%,CSc1cccc(CN2CCC(Oc3ccc(C(=O)N4CCCCC4)cc3)CC2)c1
-7.0,0.6%,-2.0%,0.0%,CCN(CC)C(=S)SCC(=O)NC12CC3CC(CC(C3)C1)C2
-11.1[21.1 µM],22.6%,-4.1%,-1.2%,Cc1cc(=O)[nH]c(SCC(=O)Nc2ccc(F)cc2)c1C#N
x,-1.1%,-35.8%,-1.2%,O=C(COc1ccc2ccccc2c1Br)Nc1cccnc1
2.8,12.1%,-2.3%,3.0%,COc1cc(C=O)ccc1OCC(=O)NC(C)(C)C
x,-9.4%,-17.3%&-18.6%,-0.2%,COc1ccc(-c2nnc(SCC(=O)N3CCCCC3)o2)cc1
7.8,u,-9.7%,u,CC1CCN(C(=O)CSc2nc(N)c3c4c(sc3n2)CN(C)CC4)CC1
1.0,9.3%,-18.4%,-0.7%,Cc1ncc([N+](=O)[O-])n1CCOC(=O)c1cc(Cl)cc(Cl)c1N
x,-4.3%,x,0.5%,CC(OC(=O)Cc1c[nH]c2ccccc12)C(=O)N(C)c1ccccc1 (stereo not given)
2.1,0.1%,x,2.6%,CCN1C(=O)N[C@@H](c2cccc(F)c2)C(C(=O)OC)=C1C
x,-16.7%,u,u,COc1cccc(/C=C2/SC(=S)N(CCCC(=O)Nc3ccc(O)cc3)C2=O)c1
15.5,u,-0.4%,u,CC(C)C1NC(C(=O)O)Cc2c1[nH]c1ccccc21 (stereo not given)
1.4,-15.7%,-6.0%,-4.0%,CC1CCCC(C)N1CCNC(=O)C1CCN(S(=O)(=O)N2CCCCC2)CC1 (stereo not given)
-24.5,-8.3%,-2.0%,-4.4%,O=C(NCCCN1CCOCC1)C1CC(=O)N(C2CCCCC2)C1 (stereo not given)
x,-3.8%,-1.5%,-1.5%,CCN(C(=O)CN1C(=O)S/C(=C\c2cccc(OC)c2)C1=O)C1CCS(=O)(=O)C1 (stereo not given)
-9.0,0.8%,-1.3%,-0.7%,CCCCc1nc(SCC(=O)Nc2cc(C)on2)n[nH]1
1.9,-5.6%,-13.4%,-3.2%,COc1ccc(OC)c(NC(=O)c2ccccc2NS(=O)(=O)c2cccc3cccnc23)c1
8.1,32.8%,-44.2%,0.1%,COc1ccc2nc(Nc3ccccc3)sc2c1
5.2,-5.7%,-0.6%,-0.7%,O=C(CCc1ccccc1)Nc1cc(C(=O)O)cc(C(=O)O)c1
3.3,-0.6%,2.5%,u,O=C(c1ccccc1)c1ccc2nc(N3CCCCC3)c3nncn3c2c1
-23.3,-15.3%,-31.9%,9.3%,O=C(CN1CCc2ccccc21)NCc1ccccc1Cl
2.9,-0.9%,0.5%,-0.1%,CCOc1ccc(CC(C(=O)NN)C(=O)NN)cc1CN(C)C
